Screening results as filed in PubChem BioAssay.
Tg IFNy HTS: inhibitors of Toxoplasma gondii growth with IFN-gamma; Toxoplasma gondii growth in IFN-gamma-treated host cells; hits give low values; reference of the scale not given here; activity change, negative = inhibition, %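 (about 20 µM by stock and volumes)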; 3.8% of 69,000 active;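 active = below -70%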;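 also: host cells are HeLa cells infected with Toxoplasma gondii; parasite growth read as luciferase light; one replicate is shown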
* marks the source's active call; other numbers are inactive results; i = inactive; & = joins results of further samples. Not all compounds are listed (hit frequency here may not be typical).

SMILES	Tg IFNy HTS
COc1ccccc1-c1nc(Cn2nnc(-c3nc(-c4ccc(Cl)c(F)c4)no3)c2C)c(C)o1	7.1
CC(=O)N1[C@H](CO)[C@H](c2ccccc2)[C@H]1CNC(=O)CN1CCOCC1	-1.0
O=C(CCn1nnc(-c2ccccc2)n1)N1CCCC(N2CCCC2=O)C1 (stereo not given)	-42.9
Cc1nc(-c2cccc(F)c2)sc1CCNC(=O)C(=O)Nc1ccc2c(c1)OCCO2	-33.6
Cc1c(F)cccc1NC(=O)Cn1ncc2c(N3CCCC3)ncnc21	17.6
CC(C)n1nc(Cn2cccn2)c2c1CNC2	38.2
CC(C)Oc1ccccc1-c1cccc(CN2CCOCC2)c1	-2.8
CN(C)C(=O)n1c(C(=O)NCC2CCCO2)cc2c1c1ccccc1n2C (stereo not given)	22.2
CN(C)Cc1cccc(N=C(c2ccccc2)c2c(O)[nH]c3cc(C(=O)N(C)C)ccc23)c1	-60.3
CSc1nnc(SCc2nc(-c3ccc(Cl)c(Cl)c3)cs2)s1	59.2
O=c1[nH]c2cc(Cl)ccc2cc1CN1CCN(Cc2cccnc2)CC1	8.8
O=C(CC1C(=O)NCCN1Cc1ccccc1C(F)(F)F)NCc1ccon1 (stereo not given)	4.3
Cc1cnc(N2CCOCC3(CCN(c4ccccn4)C3)C2)nc1 (stereo not given)	146.8
O=C(C1CCC2(CCN(Cc3ccccn3)CC2)O1)N1CCCC1 (stereo not given)	-30.2
Cc1noc(C)c1S(=O)(=O)N1CSC[C@@H]1C(=O)NCCc1csc(-c2ccccc2)n1	17.3
CC(=O)N1CCc2cc(NC(=O)Cn3ccnc3C(C)C)ccc21	-12.8
Cc1ccc(C(=O)NCCc2c[nH]c3cccc(C4(O)CCCC4)c23)cn1	87.7
CN1C(=O)CCc2cc(NC(=O)C3CCCCC3)ccc21	1.9
CCCCCCCc1nc2c(=O)[nH]c3ccccc3c2o1	-0.4
COc1ccc(-c2nc(C)cc(C)c2C(N)=O)c2ccc(C)nc12	-2.7
O=S(=O)(NCC1(O)CCCNCC1)c1ccc(-c2ccccn2)s1 (stereo not given)	9.2
COc1ccc(/C=C/C(=O)NC(=S)NN2CCCCC2c2cccnc2)cc1 (stereo not given)	-13.4
CC(C)NC(=O)N(C)C[C@H]1Oc2ccc(NC(=O)Cc3ccccc3)cc2CC(=O)N([C@@H](C)CO)C[C@H]1C	-23.8
CC(C)c1ncc(C(=O)N2CCCC(CCc3ccccc3F)C2)cn1 (stereo not given)	-42.6
COc1ccc2c3c(n(C)c2c1)[C@@H](CO)NCC31CCN(S(=O)(=O)c2cccc(C)c2)CC1	-49.4
COc1ccc(-n2c(=O)c(C(=O)NCC3CC3)c(O)c3cccnc32)cc1	6.0
COc1ccc(-c2ccc(C3[C@H]4CNC[C@@H]3N4S(=O)(=O)c3cn(C)cn3)cc2)cc1 (stereo not given in full)	24.0
O=C(O)CN1Cc2[nH]nc(COc3ccccn3)c2C1	106.5
Cc1cc(C)c(C(=O)NC(Cc2ccccc2)C(O)c2nccs2)c(=O)[nH]1 (stereo not given)	49.1
Cc1ccc(NC(=O)NCC(c2cccnc2)c2cn(C)c3ccccc23)cc1C (stereo not given)	117.5
Cc1cc(C)c(-c2cncc(C(=O)N3CCCCC3)n2)c(C)c1	2.1
Cc1cccc(NC(=O)c2c(O)c3cccnc3n(-c3ccc(F)cc3)c2=O)c1C	-50.1
CN(C)C(=O)N1CCCn2cnc(CN3CCCC3=O)c2C1	-50.4
COc1cccc(CC(=O)N2CCC[C@@H]2C(=O)NCCc2csc(-c3ccccc3)n2)c1	19.1
COc1cccc(NC(=O)C[C@H]2CC[C@@H]3[C@H](COc4ccc(NS(=O)(=O)c5cccc(F)c5)cc4C(=O)N3C)O2)c1	-14.0
NC(=O)c1noc(CN2CCCCC2CCN2CCOCC2)n1 (stereo not given)	3.7
c1cc(CN2CCOCC2)cc(-c2ccc(NC3CCCC3)nn2)c1	167.1
CCN1CCN(Cc2ccc(Nc3nc(-c4ccc(OC)cc4)nc4ccccc34)cc2)CC1	-53.3
Cc1noc(C)c1S(=O)(=O)Nc1ccc2c(c1)C(=O)N([C@H](C)CO)C[C@H](C)[C@@H](CN(C)Cc1ccc(C(=O)O)cc1)OCCCC[C@H](C)O2	39.5
Fc1ccc(Cn2ncc3c2CN(c2nnnn2-c2ccccc2)C3)cc1	-10.5
O=C(CN1CCOCC1)N[C@H]1CC[C@H](CCn2cc(C3CC3)nn2)O[C@@H]1CO	-3.5
CC(C)CNC(=O)C1CC2CN(Cc3cnn(C)c3)CC1O2 (stereo not given)	3.7
O=C(Nc1ccc(F)cc1)Nc1ccc(-c2nc(-c3ccccc3)co2)cc1	1.9
CSc1ccccc1NC(=O)CCC(=O)N1CCC[C@H]1CO	3.1
CN1c2ccc(C#Cc3cccnc3)cc2[C@@H]2[C@@H](CCN2C(=O)c2cccc(F)c2)[C@H]1CO	-30.3
COc1ccc2[nH]c3c(=O)n(/N=C/[C@H]4C(C)C=C(C)CC4C)c(=O)[nH]c3c2c1 (stereo not given in full)	20.3
CO[C@@H]1CN(C)C(=O)c2ccc(NS(C)(=O)=O)cc2OC[C@H](C)N(CC2CC2)C[C@H]1C	28.3
CCN1C(=O)N(Cc2cccc(OC)c2)C(=O)C12CCN(Cc1cc3ccccc3s1)CC2	-90.1*
COCC(=O)N1CCC2(CC1)CC(OCC1CC1)c1ccc(F)cc12 (stereo not given)	2.7
CCN(CC)Cc1cccc(NS(=O)(=O)NCc2ccccc2)c1	-4.0
COc1cccc2c1OCC(NC(=O)c1coc(COc3ccccc3)n1)C2 (stereo not given)	-22.8
Cc1cc(OCCCS(C)(=O)=O)cc(C)c1-c1cccc(COc2ccc3c(c2)OC[C@H]3CC(=O)O)c1	12.8
Cc1ccc2oc3oc(=O)cc(C)c3c2c1	0.4
Cn1ccnc1C(NC(=O)c1cccnc1)c1ccc(F)c(F)c1 (stereo not given)	0.0
CCNc1ncc(C(=O)NCC2(O)CCCNCC2)cn1 (stereo not given)	2.6
Fc1ccccc1CSc1nc(NCc2ccccc2)c2ccccc2n1	0.8
CC(=O)C(C)(C)OC(=O)N1CCSCC1	-18.2
C[C@@H]1CN([C@H](C)CO)C(=O)c2cc(NC(=O)Nc3cccc4ccccc34)ccc2O[C@@H](C)CCCCO[C@@H]1CN(C)S(=O)(=O)c1cn(C)cn1	i
Cc1ccc(CN2CCC3(CC2)COC(COCc2ccncc2)C3)o1 (stereo not given)	0.7
CCOC1CCN(Cc2cc3cc4c(cc3[nH]c2=O)CCC4)CC1	-13.5

Ordered by number of heavy atoms (rising): part of the list above
SMILES	Tg IFNy HTS
CN1C(=O)CCc2cc(NC(=O)C3CCCCC3)ccc21	1.9
CC(=O)N1[C@H](CO)[C@H](c2ccccc2)[C@H]1CNC(=O)CN1CCOCC1	-1.0
Cc1ccc(NC(=O)NCC(c2cccnc2)c2cn(C)c3ccccc23)cc1C (stereo not given)	117.5

(cont.)
SMILES	Tg IFNy HTS
C=CCn1c2c(ccc1=O)CC(NS(=O)(=O)c1cn(C)cn1)CC2 (stereo not given)	-9.3
COc1cccc(O)c1O	2.0
COc1ccc(CCNc2ncnc3c2cnn3-c2cccc(C)c2)cc1OC	-3.7
COc1ccc(-c2nc(Nc3cccc(C)c3)c3ccccc3n2)cc1	-76.1
C=CCOCC1CC2OCCN(C(=O)c3ccc4ncccc4c3)C2C1 (stereo not given)	-6.3
CSc1ccc(C2c3[nH]c4ccccc4c3CCN2C(=O)c2ccc3c(c2)OCO3)cc1 (stereo not given)	208.6
Cc1ccc(S(=O)(=O)Nc2cccc3c2O[C@@H](CN(C)C(=O)Nc2ccc(C(F)(F)F)cc2)[C@H](C)CN([C@@H](C)CO)C3=O)cc1	-29.0
CC(c1ccon1)N(C)C(=O)c1cccc(CC2CCNCC2)c1 (stereo not given)	6.7
CCCC(=O)Nc1ncnc2c1ncn2[C@@H]1O[C@@H]2COP(=O)(O)O[C@H]2[C@H]1OC(=O)CCC	23.1&9.6
Cc1ccc(O)c(CN(C)Cc2cccc3ncccc23)c1	1.5
CC(C(=O)N1CCCC(c2cc3cccnc3[nH]2)C1)N1CCOCC1 (stereo not given)	31.6
COc1ccc2c3c(n(C)c2c1)[C@H](CO)N(CC1CC1)CC31CN(Cc2ccc(F)cc2)C1	-52.8
CC1(C)CC(c2nccn2CCCc2nn[nH]n2)CCO1 (stereo not given)	-1.7
COc1ccc(-c2nc3c(s2)CN(C(=O)Nc2ccc(OC)cc2OC)CC3)cc1	-18.0
CCCC(Nc1nc(C(=O)OCC)nc2ccccc12)c1cccs1 (stereo not given)	-56.1
Cc1cnc(CN(C)C(=O)CC2COc3ccc(C(=O)N(C)C)cc3N2C)[nH]1 (stereo not given)	-47.2
O=C(NC[C@@H]1CCNC[C@H]1O)c1nc2ccccc2[nH]1	12.8
O=C([C@H]1[C@H](CO)[C@H]2Cn3c(cccc3=O)[C@@H]1N2S(=O)(=O)c1ccccc1F)N1CCCCC1	-7.3
COc1ccc(-c2cccc(C(C)N(C)C)c2)cc1CO (stereo not given)	3.0
S=c1n(CN2CCOCC2)nnn1-c1ccccc1	58.9
Cc1nnc(N2C[C@H]3CN(C(=O)c4ccc(C)c(C)c4)CCC[C@@]3(C(=O)N(C)C)C2)o1	8.5
CS(=O)(=O)NC1CC2(CCN(C(=O)c3ccno3)CC2)C1	-1.5
CCCCCOc1ccc(-c2ccc(-c3ccc(C(=O)NC4CC(O)C(O)NC(=O)C5C(O)C(C)CN5C(=O)C(C(C)O)NC(=O)C(C(O)C(O)c5ccc(O)cc5)NC(=O)C5CC(O)CN5C(=O)C(C(C)O)NC4=O)cc3)cc2)cc1 (stereo not given)	-69.2
CCc1cc(NCC2(O)CCCCC2)nc(N2CCOCC2)n1	1.2

Compounds listed so far containing an aryl thioether with sulfur outside any ring, in the order listed:
SMILES	Tg IFNy HTS
CSc1nnc(SCc2nc(-c3ccc(Cl)c(Cl)c3)cs2)s1	59.2
CSc1ccccc1NC(=O)CCC(=O)N1CCC[C@H]1CO	3.1
Fc1ccccc1CSc1nc(NCc2ccccc2)c2ccccc2n1	0.8
CSc1ccc(C2c3[nH]c4ccccc4c3CCN2C(=O)c2ccc3c(c2)OCO3)cc1 (stereo not given)	208.6

(further entries)
SMILES	Tg IFNy HTS
Cc1ccc(NC(=O)c2nnn(Cc3nc(-c4ccc(Cl)cc4)oc3C)c2C)cc1F	75.9
O=C(NCCc1c[nH]c2ccccc12)C1CCCN(c2nnc(N3CCCC3=O)s2)C1 (stereo not given)	18.9
COc1ccc(S(=O)(=O)Nc2ccc3c(c2)CC(=O)N([C@@H](C)CO)C[C@@H](C)[C@@H](CN(C)C(=O)Nc2c(C)noc2C)O3)cc1	19.2
COCCn1cnc2nnc3ccc(C(=O)N(C)Cc4ccccn4)cc3c21	-14.8
Cc1ccc(NC(=O)c2c(O)c3ccccc3[nH]c2=O)cc1	145.0
Cn1cnc(S(=O)(=O)N2CCC(c3cccc(Cc4ccccc4)n3)CC2)c1	-29.6
CN(C)C(=O)c1ccc(-c2ccc(C3[C@@H]4CN(C(=O)Nc5ccc(Cl)cc5)C[C@H]3N4)cc2)cc1 (stereo not given in full)	-10.3
CN(Cc1ccsc1)Cc1cc(-c2ccccc2)no1	70.3
CC(C)Cn1c2c(ccc1=O)CC(NC(=O)c1ccc[nH]1)CC2 (stereo not given)	-6.8
CC(C)N1CCNC(=O)C1CC(=O)N(C)Cc1nc2ccccc2[nH]1 (stereo not given)	-1.1
COc1ccc(CCN2C[C@]34CN(c5ncc(C)cn5)C[C@@H](C[C@H]3S2(=O)=O)O4)cc1	-4.0
O=C(Cc1ccc(O)cc1)NCCNC(=S)Nc1ccc(Cl)cc1	-96.3*

Exported with each value named: entries from further up
canonical_smiles: Cc1cnc(CN(C)C(=O)CC2COc3ccc(C(=O)N(C)C)cc3N2C)[nH]1 (stereo not given)
- Tg IFNy HTS: -47.2
canonical_smiles: O=C(NC[C@@H]1CCNC[C@H]1O)c1nc2ccccc2[nH]1
- Tg IFNy HTS: 12.8
canonical_smiles: O=C([C@H]1[C@H](CO)[C@H]2Cn3c(cccc3=O)[C@@H]1N2S(=O)(=O)c1ccccc1F)N1CCCCC1
- Tg IFNy HTS: -7.3

Additional records.
SMILES	Tg IFNy HTS
O=C(NCc1cccs1)C1CN(C(=O)c2cc(F)cc(F)c2)CC12CCOCC2 (stereo not given)	3.1
CCc1ccccc1NC(=O)c1c(O)c2ccccc2n(CC)c1=O	131.0
O=C(CC1N=C2c3ccccc3N=C(SCc3cccc(Cl)c3)N2C1=O)NCc1ccc2c(c1)OCO2 (stereo not given)	18.7
COc1cccc(NC(=O)N2CC(=O)N3[C@H](CO)[C@@H](c4ccc(C#CCC5CCCC5)cc4)[C@H]3C2)c1	-41.6
O=C(c1cccs1)N1CCC(NCCOc2ccccc2Cl)CC1	-8.2
COc1ccc(-c2nnc(-c3nc(Nc4cc(C)cc(C)c4)c4ccccc4n3)o2)cc1	-100.8*
Cc1cc(/C=C/c2ccccc2)cnc1N	170.8
COCCNC(=O)COc1ccc(OCCNC[C@@H](O)COc2ccccc2)cc1	-0.7
C[C@@H]1CN([C@@H](C)CO)C(=O)c2cc(NS(=O)(=O)c3ccc(Cl)cc3)ccc2O[C@@H](C)CCCCO[C@H]1CN(C)C(=O)CCCN(C)C	-68.4
CN(Cc1ccncn1)C(=O)C1(Oc2ccc(Cl)cc2)CCNCC1	-4.8
CN(C)CCNC(=O)c1ccn(-c2ccc3ccccn23)n1	360.0
COc1ccc(CC(=O)Nc2ccc(-c3nc(Cn4cc(C)cn4)c(C)o3)cc2)cc1	-51.4
CN(C)C1CCC2(CCN(Cc3cnn(C)c3)CC2)c2ccccc21 (stereo not given)	9.2
COCCCNC(=O)c1nc(Nc2ccccc2)c2ccccc2n1	-14.7
CC1(C)N=C(N)N=C(N)N1c1ccc(Cl)cc1	-31.3
O=C1CSC(=O)N1Cc1c(Cl)cccc1Cl	2.5
Cc1ccc(-c2nc3cnccn3c2NCc2ccco2)s1	123.9
CN1CCC=C(CN(C(=O)c2ccc(C(F)(F)F)cc2)C2CC2)C1	-8.1
CN(C)C(=O)CN1Cc2ccnn2CC(COCc2cccnc2)C1 (stereo not given)	1.7
CC(C)Oc1ccc(NC(=O)c2cc(-c3cn(-c4ccccn4)cn3)n3ccccc23)cc1	383.0
Cc1nn(C)cc1S(=O)(=O)Nc1ccc2c(c1)oc(=O)n2C	55.0
